Yeast UUG start: alters start codon recognition fidelity in yeast; activity score, % at 18.7 µM; 0.13% of 350,000 active; S. cerevisiae UUG-firefly luciferase reporter, luminescence/redox ratio;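 active = replicate mean at a twofold rise or more, about +100% in these data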;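 note: firefly luciferase made from a UUG start codon reports start codon fidelity; reporter light over untreated wells divided by growth signal over untreated wells; some hits fall short of that in this replicate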
eIF4H inh: inhibitors of RNA binding by human eIF4H; inhibition, % at 35 µM; 0.94% of 290,000 active; Q15056; eIF4H fluorescence polarization binding assay;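 active = 50% or more with normal probe brightness, or confirmed in later tests; inconclusive = above 50% with abnormal brightness, or retests that disagree; inactive = below 50% or failed in later tests; about a fifth of its hits are not listed in these tables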;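 note: calls also rest on retests at 20 µM and on dose response follow-up; 0% = protein and probe with vehicle and 100% = probe without protein; strong numbers were not always called active; many hits fall short of the cut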
PABP polyA inh: PABP-poly(A) binding inhibition; PABP-poly(A) RNA binding, fluorescence polarization; P11940; 1% of 290,000 active; inhibition, % at 35 µM;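 active = 50% or more with normal probe brightness, or confirmed in later tests; inconclusive = above 50% with abnormal brightness, or retests that disagree; inactive = below 50% or failed in later tests; about a fifth of its hits are not listed in these tables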;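 note: calls also rest on retests at 20 µM and on dose response follow-up; controls were probe without protein and protein plus probe with vehicle; some compounds called inactive have numbers as strong as hits; many hits fall short of the cut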
Target sequence (P11940 whole entry, looked up): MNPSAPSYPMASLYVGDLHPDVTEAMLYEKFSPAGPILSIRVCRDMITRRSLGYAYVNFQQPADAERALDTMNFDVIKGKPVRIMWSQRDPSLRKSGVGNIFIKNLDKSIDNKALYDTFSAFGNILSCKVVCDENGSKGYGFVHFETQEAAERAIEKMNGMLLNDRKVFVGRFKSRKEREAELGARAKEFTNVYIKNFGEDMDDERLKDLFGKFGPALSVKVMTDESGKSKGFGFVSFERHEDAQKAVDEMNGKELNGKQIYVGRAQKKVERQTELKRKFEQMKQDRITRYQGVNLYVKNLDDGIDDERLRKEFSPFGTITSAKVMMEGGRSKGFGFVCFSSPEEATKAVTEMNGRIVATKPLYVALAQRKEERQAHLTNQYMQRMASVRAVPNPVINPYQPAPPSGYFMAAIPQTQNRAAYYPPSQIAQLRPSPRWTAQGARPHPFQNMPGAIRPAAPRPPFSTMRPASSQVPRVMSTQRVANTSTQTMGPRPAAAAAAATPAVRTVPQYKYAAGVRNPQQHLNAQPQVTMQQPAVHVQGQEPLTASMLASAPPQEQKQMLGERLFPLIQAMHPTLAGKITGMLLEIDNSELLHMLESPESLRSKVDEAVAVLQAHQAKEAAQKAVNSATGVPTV
CSC inhib: cancer stem cell inhibition; cancer stem cell-like cells viability, luminescence; inhibition, % at 7.5 µM; AID 2717; 1.1% of 300,000 active;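 active = mean at 75% or more and at least half the replicates too; inconclusive = mean and replicates disagree; tested in HMLE shEcad cells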;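 note: 0% = median of negative and 100% = median of positive control wells; the first replicate is given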
MT1-MMP act inh: MT1-MMP (human) activation inhibition; HT1080 RFP-PRO-GFP cells, GFP/RFP ratio fluorescence, overnight; percent of plate control window, DMSO zero; GFP/RFP ratio change, % at 20 µM; 0.061% of 360,000 active;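 active = GFP/RFP ratio change of at least 30% with cell ATP level not reduced by more than half and red fluorescence within 50% of control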; note: strong numbers were not always called active
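system = RFP-PRO-GFP reporter HT1080 cells | dosing = 20 µM single dose, 1% DMSO | timing = overnight cell settling, then overnight compound exposure, 37 °C, 5% CO2 | read-out basis = GFP/RFP fluorescence ratio | controls = DMSO and RFP-L50D-GFP cell wells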
Rce1 inh: yeast Ras-converting enzyme inhibition; Q03530; yeast membranes, quenched prenylated peptide cleavage fluorescence; calls only; 0.27% of 290,000 active; AID 2563;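 active = fall in fluorescence gain of 50% or more versus controls, with final raw signal at or below 3038400; inconclusive = same 50% fall but final raw signal above 3038400; inactive = fall in fluorescence gain under 50%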;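 note: plate controls were neutral control wells for no effect and wells lacking membranes for full effect; tested at 10 µM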
Target sequence (Q03530 whole entry, looked up): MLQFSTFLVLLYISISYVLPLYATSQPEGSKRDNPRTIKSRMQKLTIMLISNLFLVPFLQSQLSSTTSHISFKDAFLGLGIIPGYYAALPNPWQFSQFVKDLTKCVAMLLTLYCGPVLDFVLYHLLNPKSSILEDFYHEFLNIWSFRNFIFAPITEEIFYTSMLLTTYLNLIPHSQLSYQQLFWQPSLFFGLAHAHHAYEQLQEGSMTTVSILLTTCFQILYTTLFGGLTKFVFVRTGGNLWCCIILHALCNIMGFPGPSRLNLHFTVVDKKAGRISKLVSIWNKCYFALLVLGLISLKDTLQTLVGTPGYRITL
Env fusion inh: HIV envelope-mediated fusion inhibition | inhibition, % at 12.3 µM | HeLa-JRFL Env/CEM21 cell fusion, luciferase | 1.1% of 360,000 active;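 active = mean replicate inhibition score of at least 50 and every replicate individually at or above 50; inconclusive = only one of the two criteria met; inactive = mean below 50 and not all replicates reaching 50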;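 note: 0% = plate neutral controls and 100% = maraviroc near 300 nM; one replicate is shown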
eIF4H inh retest: also measured in eIF4H inh; calls as there; inhibition, %; compound at 20 µM; confirmation average;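 mean of two retest wells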
PABP polyA inh retest: further read-out of PABP polyA inh, marked with its call; inhibition, %; compound at 20 µM; confirmation repeats;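 mean of two retest wells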
MT1-MMP act inh RFP: recorded beside MT1-MMP act inh, whose call it bears; RFP signal change, %; measured here: RFP expression control read;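 0 = vehicle wells; hits needed this value within 50% of zero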
Starred values were filed as active, the others as inactive; i = inactive; ? = inconclusive; nt = not tested or not shown. An excerpt. The share of hits here may be higher or lower than overall.

SMILES	Yeast UUG start	eIF4H inh	PABP polyA inh	CSC inhib	MT1-MMP act inh	MT1-MMP act inh RFP	Rce1 inh	Env fusion inh	others
O=C1C(=O)N(CCS(=O)(=O)c2ccccc2)c2ccc(F)cc21	nt	8	-4	9	-1	15	i	0
Cc1ccc(N(CC(O)CN2CCCCC2)S(=O)(=O)c2ccccc2[N+](=O)[O-])cc1 (stereo not drawn)	nt	12	2	-3	-2	1	i	-3
O=C(CN(Cc1ccco1)S(=O)(=O)c1cccs1)Nc1ccccc1C(F)(F)F	-34	13	12	-9	0	-1	i	nt
CCCCCC1CC(CC/C(C)=N/NC(N)=O)C(=O)O1 (stereo not drawn)	nt	-2	-9	-9	-1	1	i	-113
CC1=C(C(=O)OC(C)C)C(c2cccs2)C(C(=O)OC(C)C)=C(C)N1	3	-3	-2	18	1	-20	i	14
Cc1ccc(-c2nc(N)sc2CC(=O)OCC(=O)NCC2CCCO2)cc1 (stereo not drawn)	nt	?	6	-27	-4	5	i	-1
COC(=O)Cn1cnc2c(nnn2Cc2ccc(Cl)cc2)c1=O	-23	-12	-2	-5	-2	-3	i	5
CCn1c(=O)n(CC)c2cc(N3CCCC3)c(NC(=O)c3ccccc3C)cc21	-1	-8	3	-15	5	6	i	24
Cc1cc(C(=O)COC(=O)c2ccc[nH]c2=O)c(C)n1CCc1ccc(F)cc1	nt	3	-14	nt	3	2	i	8
COc1ccc(N2CCN(C(=O)COC(=O)CNC(=O)c3ccccc3)CC2)cc1	7	-7	-14	-9	0	5	i	-9
O=C(Nc1nnc(S(=O)(=O)N2CCOCC2)s1)c1ccc(Cl)cc1	-4	0	4	22	-2	-9	i	6
CSCCCNC(=S)N1CCN(S(=O)(=O)c2cccc(C(F)(F)F)c2)CC1	-20	2	-1	14	-1	-1	i	nt
Cc1ccc(-n2c(SCC(=O)NCc3cccs3)nnc2-c2ccoc2C)cc1	-22	-4	-4	-6	0	-1	i	nt
COc1ccc(N=Nc2ccc(N)nc2N)cc1	-31	-12	-1	9	-2	-2	i	-147
CC(C)C[C@H](NC(=O)Nc1ccccc1F)C(=O)O	-10	2	4	9	5	3	i	nt
CC1CC(C)CN(C(=O)c2cc(-c3ccccn3)nc3ccccc23)C1 (stereo not drawn)	nt	-8	-6	2	-4	-7	nt	-12
C[C@@H]1C(c2cccc(Cl)c2)=NN(c2ccccc2)[C@H]1C(=O)N1CCOC1=O	-9	nt	nt	nt	-4	-3	nt	16
Cc1cc2nc(Cl)c(Cl)nc2cc1C	nt	-10	-8	-3	-9	-7	i	19
O=C1c2ccccc2C(=O)N1CC(=O)N1c2ccccc2Sc2ccccc21	-9	-7	3	-10	5	-3	i	nt
O=C(NCc1ccco1)C12CN(Cc3ccccc3)CC1C(c1cccc([N+](=O)[O-])c1)=NO2 (stereo not drawn)	-12	0	6	4	2	-5	i	-7
COc1ccc(S(=O)(=O)c2ccc(O)cc2)cc1	-22	-2	-5	-12	-1	-1	i	-12
Nc1nc(SCc2ccccc2)cc(SCc2ccccc2)n1	-16	nt	nt	nt	-3	-5	nt	-25
COc1ccc(-c2c(C#N)c(N)n(N)c(=O)c2C#N)cc1Cl	nt	13	58	11	1	3	i	13	eIF4H inh retest=35;PABP polyA inh retest=11
COc1cccc(-n2cnc3sc(C)c(C)c3c2=O)c1	-9	74	8	-5	-2	4	i	nt	eIF4H inh retest=26;PABP polyA inh retest=16
O=C(CSc1nnc(-c2ccccc2)o1)NCC1CCCCC1	-25	15	9	nt	-7	0	i	-30

Two records drawn at random from those above, as already listed:
SMILES	Yeast UUG start	eIF4H inh	PABP polyA inh	CSC inhib	MT1-MMP act inh	MT1-MMP act inh RFP	Rce1 inh	Env fusion inh	others
O=C1c2ccccc2C(=O)N1CC(=O)N1c2ccccc2Sc2ccccc21	-9	-7	3	-10	5	-3	i	nt
Cc1ccc(N(CC(O)CN2CCCCC2)S(=O)(=O)c2ccccc2[N+](=O)[O-])cc1 (stereo not drawn)	nt	12	2	-3	-2	1	i	-3

(continued)
SMILES	Yeast UUG start	eIF4H inh	PABP polyA inh	CSC inhib	MT1-MMP act inh	MT1-MMP act inh RFP	Rce1 inh	Env fusion inh	others
Cn1ncc([N+](=O)[O-])c1C(=O)Nc1ccccc1C#N	-2	nt	nt	nt	1	2	nt	11
CCOC(=O)C1=C(C)Nc2nc(SCc3cccnc3)nn2C1c1ccc(OC)cc1 (stereo not drawn)	-7	-6	-4	11	-8	-13	i	62*
Cc1ccc(N2CC(=O)Nc3c(oc4nc(-c5ccccc5)cc(C)c34)C2=O)cc1	nt	-11	-7	-4	1	1	i	-2
COc1ccccc1NC(=O)C1CCCCN1S(=O)(=O)c1ccc(F)cc1 (stereo not drawn)	-15	5	36	-11	5	-4	i	1
Cn1c(=O)c2c(SCC(=O)Nc3cccc(F)c3)nc(-c3ccco3)nc2n(C)c1=O	7	7	9	-9	-5	4	i	-1
CCCc1nc2ccc(Br)cn2c1Cc1cccc(Cl)c1	-12	nt	nt	nt	3	0	nt	-1
CN(C)CCNc1ccc(Cl)cc1[N+](=O)[O-]	nt	0	10	1	4	0	i	23
CC(CCc1ccccc1)NC(=O)CN1CCOc2ccccc21 (stereo not drawn)	8	nt	nt	-4	-2	2	i	28
N=C1C(c2ccccc2)=C(O)CN1c1cccc(S(N)(=O)=O)c1	-30	0	-1	5	1	3	i	-9
N#Cc1ccc(NC(=O)Cn2cnc(S(=O)(=O)N3CCc4ccccc43)c2)cc1	-15	-4	4	6	-2	1	i	3
O=C(CCc1nc(-c2ccccc2F)no1)Nc1ccc(Oc2ccccc2)cc1	-25	1	9	57	-6	-27	i	nt
CCOc1cc(/C=C(\C(=O)O)c2ccc(S(=O)(=O)N3CCCC3)s2)ccc1OC	-15	nt	nt	3	-2	7	nt	nt
CC(=O)c1cc(C(c2csc(C(C)=O)c2)c2csc(C(C)=O)c2)cs1	-20	-2	-9	10	2	-2	i	-12
CCCCN1c2cc(C)c(O)cc2C(C(=O)OCC)C1C (stereo not drawn)	nt	6	-8	-8	nt	nt	i	5
C=CCn1c(SCC(=O)Nc2ccc3c(c2)OCCO3)nnc1-c1ccccn1	-17	-5	-11	-11	8	1	i	-35
COc1ccc(C2=NCC(CSc3nnnn3C)S2)cc1 (stereo not drawn)	-25	6	2	1	-2	-1	nt	22
CCSc1ccccc1C(=O)NCc1ccc(S(N)(=O)=O)cc1	nt	-1	-3	4	-3	-4	i	-26
CC1C(=O)CC(c2ccc([N+](=O)[O-])cc2)NC1c1ccc([N+](=O)[O-])cc1 (stereo not drawn)	-11	3	-5	39	1	-5	i	5
O=C(OCC(=O)N1CCCCCC1)c1ccccc1Br	-19	nt	nt	-12	-1	-2	nt	-41
O=C(O)CCCC(=O)Nc1ccccc1C(=O)O	-4	-5	0	nt	1	4	i	-16
CCC1SC(CC)C(=O)N(CC(=O)NC2CCCCC2)C1=O (stereo not drawn)	nt	-6	-6	nt	4	6	nt	-13
CC(=O)N(c1ccccc1)C(C)c1nc(C#N)c(C#N)nc1C (stereo not drawn)	-16	-2	-4	-4	3	5	i	23
O=c1[nH]c2cc3c(cc2cc1C(c1nnnn1CC1CCCO1)N1CCCCCC1)OCO3 (stereo not drawn)	nt	-5	-5	nt	nt	nt	i	nt
N#Cc1c(F)cccc1NCc1cccnc1	-9	-7	2	-6	1	2	i	-1
Cc1cc(C(=O)Nc2ccccc2C(F)(F)F)no1	-10	-1	-11	-3	0	3	i	-10
SMILES	Yeast UUG start	eIF4H inh	PABP polyA inh	CSC inhib	MT1-MMP act inh	MT1-MMP act inh RFP	Rce1 inh	Env fusion inh	others
COc1ccccc1CN1CC(C(=O)NCCc2ccccc2Cl)CCC1=O (stereo not drawn)	-2	-8	-5	-4	4	3	i	-6
O=C(N/N=C/c1ccc(OC(F)F)cc1)c1cccc(S(=O)(=O)N2CCOCC2)c1	nt	3	44	-17	2	2	i	-5
Cc1ccc(N2CC(NC(=O)C(=O)c3c(C)[nH]c4ccccc34)CC2=O)cc1 (stereo not drawn)	13	nt	nt	-7	-4	0	i	-10
COC(=O)c1ccccc1NC(=O)c1ccccc1NS(C)(=O)=O	-25	1	-1	-18	3	4	i	-106
CO/N=C(/CN1CCCCC1)c1ccc(Cl)cc1	-15	-1	1	-14	3	4	i	-2
COc1cccc(C(=O)N(c2ccc(OC)cc2OC)C2C=CS(=O)(=O)C2)c1 (stereo not drawn)	-6	-2	-2	-4	8	3	i	nt
COc1ccccc1CN(C)C(=O)c1ccc2c(c1)NC(=O)CS2	-18	-6	7	-4	-1	2	i	14
CC(Oc1ccccc1Cl)C(=O)N1CCCN(C)CC1 (stereo not drawn)	-1	2	-11	2	-2	0	i	-3
Cc1ccc2nc(NC(=O)COC(=O)c3ccccn3)sc2c1	nt	0	-4	-9	2	6	i	-21
CCOc1ccc(NC(=O)C2CCN(S(=O)(=O)c3ccc4c(c3)NC(=O)C(C)S4)CC2)cc1 (stereo not drawn)	nt	17	1	-15	-2	-21	i	7
O=C(CCN1C(=O)/C(=C/c2cccs2)SC1=S)Nc1ccc(C(=O)O)cc1	-9	6	6	nt	-10	-1	i	-6
CCCCC[C@H]1CN(C2CCCCC2)C(=O)[C@@H]1CC(=O)NCc1ccc(OC)cc1	4	-8	-7	1	1	-5	i	?
CC(NC(=O)OC(C)(C)C)C(=O)Oc1cc2oc(=O)cc(-c3ccccc3)c2cc1Cl (stereo not drawn)	-7	-1	3	nt	-15	-9	i	nt
COc1ccc(-c2cc(C3CCN(c4cc(Cl)nc(N)n4)CC3)[nH]n2)cc1	-19	1	8	7	-6	-20	i	94*
CC(C)(C)S(=O)(=O)Cc1nc(-c2ccc(Cl)c(Cl)c2)cs1	nt	-4	4	3	7	-13	i	-7
COc1ccccc1CCC(=O)NNC(=O)c1ccncc1	-20	nt	nt	-5	1	5	i	-13
CC(C)Cn1cnc2c1c(=O)[nH]c(=O)n2Cc1ccccc1	1	-10	4	nt	-2	0	i	12
O=C(CSc1cccc[n+]1[O-])c1ccc(Cl)s1	nt	7	4	-17	-3	4	i	26
CC(=O)Nc1cc2c3c(c1)CC(=O)N3CCC2	-22	-14	4	15	2	3	i	4
Cn1cccc1CC(=O)NNC(=O)Nc1ccc(Cl)cc1	nt	4	-5	-13	-3	0	i	10
COc1ccc(N(CC(=O)NCCSc2ccccn2)S(=O)(=O)c2ccc(C)cc2)cc1OC	-31	-10	1	-12	-4	0	nt	9
COc1ccccc1CCNC(=O)c1cnn2c(C(F)F)cc(C)nc12	-15	-12	-5	2	4	3	i	27
Cc1nc(=O)c(-c2ccccc2)c(C)n1-c1ccc(C(=O)O)cc1	-5	1	21	-4	-3	-3	i	18
Cn1c(NC(=O)c2cccc(C(F)(F)F)c2)cc(=O)n(C)c1=O	-13	-8	2	-5	0	0	i	6
COC(=O)CN1C(=O)[C@H]2[C@@H](c3ccc(C)o3)N3C(=O)CN(CC4CC4)C(=O)[C@@]3(C)[C@H]2C1=O	-3	-6	-2	-1	0	5	i	-10
CCCCOP(=O)(c1ccc(N(C)C)cc1)C(O)c1cc(OC)ccc1OC (stereo not drawn)	12	-3	3	0	1	2	i	-2
Cc1cc(S(=O)(=O)NCc2ccccc2)ccc1OCC(=O)Nc1cccc([N+](=O)[O-])c1	-16	10	9	-4	3	-22	i	3
CN(CC1CCCN(CCc2cccc(C(F)(F)F)c2)C1)C(=O)c1cc2ccccc2o1 (stereo not drawn)	-13	-5	0	nt	-2	-3	i	19

Compound activity as filed in PubChem.
